Source: PubChem (National Center for Advancing Translational Sciences (NCATS))
RE007 growth inh: less growth of the S. pombe RE007 Vpr strain; S. pombe RE007 Vpr strain, BacTiter-Glo ATP luminescence, 24 h; control for the full effect not named in the record; Potency, µM (series often up to 92.2 µM), for the others: top-dose activity change, negative = less growth; 0.21% of 360,000 active; AID 651644; active = well fitted falling curve with a large enough effect; inconclusive = small, poorly fitted or top-dose-only effect; inactive = no such curve, though single readings can be large or run the other way;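 note: nearly all actives have a fitted effect of over 50% in size; the assay follows cell death caused by Vpr and the record does not say whether a fall means rescue or toxicity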
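Fission yeast strain RE007, carrying one chromosomally integrated HIV-1 vpr copy, was seeded at OD 0.01 in PMG+AL medium with 23 nL pinned compound. After 24 h at 30 °C and 99% humidity, viability was read by BacTiter-Glo luminescence.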
StopGo reporter: lowers the luciferase signal of an FMDV 2A StopGo reporter; AID 1159524; Potency, µM (highest dose often 57.9 µM), inactives show top-dose signal change, negative = less light; human cells with a luciferase reporter of 2A StopGo recoding; control for the full effect not named in the record; 1.2% of 410,000 active; active = well fitted falling curve with a large enough effect; inconclusive = small, poorly fitted or top-dose-only effect; inactive = no such curve, though single readings can be large or run the other way; tested in HEK293T cells; note: nearly all actives have a fitted effect of over 45% in size; luciferase light after 4 h
Starred values were filed as active, the others as inactive; [ ] = dose if it differs, or a comment. % is set by controls: 0 for no effect and ±100 for the full control effect; potency is the fitted concentration of half-maximal effect. An excerpt, so the mix of outcomes need not match the whole.

Screening O=C(NCc1ccccc1)C1C(c2ccccc2)=Nc2ccccc2N1C(=O)c1cnccn1 (stereo not drawn) returned RE007 growth inh 0% and StopGo reporter -6%.
COc1ccc(C(=O)N2CCCC(c3cc(C(=O)NCc4cccnc4)no3)C2)cc1 (stereo not drawn) was read as RE007 growth inh 11% and StopGo reporter -4%.
Screening Cc1cc(Br)cn2c(Cc3ccsc3)c(-c3ccccc3)nc12 returned RE007 growth inh -3% and StopGo reporter -14%.
`COc1ccccc1-c1cccc([C@@H]2C[C@H]3[C@H](CON3C)CN2Cc2ccccc2)c1` gave RE007 growth inh 0% and StopGo reporter 0%.
Cc1ccc(CNS(=O)(=O)c2ccc(-n3cccn3)cc2)cc1 was read as RE007 growth inh -5% and StopGo reporter -5%.
Screening COc1ccc(-c2oc3c(c2C#CC(C)(C)O)C(OCCO)CC3)cc1 (stereo not drawn) returned RE007 growth inh 1% and StopGo reporter -23%.
COc1ccc(CNC(=O)C2(CC3CC(c4ccccc4)=NO3)CCN(C(=O)CCCCCBr)CC2)cc1 (stereo not drawn) was read as RE007 growth inh 7% and StopGo reporter 5%.
CC1=C(C(=O)N2CCOCC2)CC(CC(=O)NCCCCc2ccccc2)C(=O)N1Cc1ccc(C(C)(C)C)cc1 (stereo not drawn) was read as RE007 growth inh -4% and StopGo reporter inconclusive.
`COCCCNC1=C(C#N)C(=O)NC(c2cccc([N+](=O)[O-])c2)S1` (stereo not drawn) gave RE007 growth inh 15% and StopGo reporter inconclusive.
Cc1ccc(S(=O)(=O)N[C@H](CNCc2ccccc2)C(C)C)cc1 was read as RE007 growth inh -17% and StopGo reporter -8%.
For O=C(Nc1cccc2ccccc12)c1ccc2sc([C@@H]3O[C@H](CO)[C@@H](O)[C@H]3O)nc2c1 the results were RE007 growth inh 0%[18.4 µM] and StopGo reporter 26%.
`CCC(C)c1nc2c(c(N3CCC3=O)c1-c1ccccc1)CCCC2` (stereo not drawn) gave RE007 growth inh -10% and StopGo reporter 0%.
Screening Cc1cc(Br)cn2c(Cc3ccccc3C(F)(F)F)c(C3CCCCC3)nc12 returned RE007 growth inh 6% and StopGo reporter -15%.
c1ccc(C[C@H]2COc3c4ccccc4nn32)cc1 was read as RE007 growth inh -2% and StopGo reporter 48%[activator].
COC(=O)N1CCCCC1c1cc(C(=O)NCc2ccc(Cl)c(Cl)c2)no1 (stereo not drawn) was read as RE007 growth inh 14% and StopGo reporter -7%.
CN1OC[C@@H]2CN(C(=O)CCc3ccccc3)[C@H](c3cccc(-c4ccccc4)c3)C[C@@H]21 was read as RE007 growth inh 0% and StopGo reporter 0%.
CC1(C(=O)Nc2ccccc2)Cc2c(-c3cccc(C(N)=O)c3)ccnc2O1 (stereo not drawn) was read as RE007 growth inh -7% and StopGo reporter -16%.
`COc1ccc(-c2cc(NC=O)c3ncc(-c4cccc(C(C)=O)c4)n3c2)cc1` gave RE007 growth inh -2% and StopGo reporter -4%.
For COc1cc(C(=O)Nc2cc(S(=O)(=O)N3CCOCC3)ccc2N2CCN(C)CC2)cc(OC)c1OC the results were RE007 growth inh 9% and StopGo reporter -10%.
Screening CCCCCC(=O)N1C[C@@H](O)[C@H](n2cc(COC(=O)c3ccccc3)nn2)C[C@@H]1c1ccc(C)cc1 returned RE007 growth inh -4% and StopGo reporter -5%.
Screening CCCCCCCCN1C(=O)[C@H](CC(=O)NCC2CCCCC2)C[C@@]2(C(=O)OC)CC(C)(C)CC=C12 returned RE007 growth inh 1% and StopGo reporter -10%.
For CS(=O)(=O)N1c2ccccc2[C@]2(Br)C[C@H]3C(=O)N[C@@H](Cc4ccccc4)C(=O)N3[C@H]12 the results were RE007 growth inh -2% and StopGo reporter -19%.
For CC1CCN(c2ccc3c(c2)S(=O)(=O)c2ccccc2C3=O)CC1 the results were RE007 growth inh -6% and StopGo reporter -9%.
C=C1CCN(c2ccc(C(=O)O)cc2[N+](=O)[O-])CC1 was read as RE007 growth inh -3% and StopGo reporter -13%.
CN(C)CCCNc1nc2cc(-c3ccc4c(ccn4C)c3)sc2c(=O)n1C was read as RE007 growth inh -28% and StopGo reporter 0%.
COc1cc2oc(=O)cc(CN3CCN(C(C)=O)CC3)c2cc1Cl was read as RE007 growth inh 2% and StopGo reporter -18%.
CC(C)c1ccc(NC(=O)Nc2nnc([C@@H]3C[C@H](O)[C@@H](CO)O3)s2)cc1 was read as RE007 growth inh -5%[18.4 µM] and StopGo reporter -13%.
`Cn1ccnc1-c1nnn(-c2ccc(F)cc2)n1` gave RE007 growth inh -11% and StopGo reporter 63%[activator].
Screening COC(=O)C1N[C@@H]([C@@H](NC(=O)COc2ccccc2)C(=O)NCc2ccc(OC)cc2)SC1(C)C (stereo partly drawn) returned RE007 growth inh 7% and StopGo reporter -7%.
Screening C=CCNc1nc(NCc2cccc(OC)c2)c2sc(-c3ccccc3)cc2n1 returned RE007 growth inh -8%[18.4 µM] and StopGo reporter 22%.
Screening O=C1OCCC1=COCCCCOC=C1CCOC1=O returned RE007 growth inh 1% and StopGo reporter 0%.
`Cc1cc2oc(=O)cc(CN3CCN(c4ccccc4)CC3)c2cc1Cl` gave RE007 growth inh 9% and StopGo reporter -12%.
`CC(C)C(=O)Nc1ccc(COc2ccccc2CN(Cc2ccccc2)C(=O)OC(C)(C)C)cc1` gave RE007 growth inh -18% and StopGo reporter -15%.
`CC(=O)Nc1cc(-c2ccccc2F)cn2c(-c3ccccc3)cnc12` gave RE007 growth inh -6%[18.4 µM] and StopGo reporter -10%.
COc1ccc(N2C(=O)CC(Sc3nccc(C)n3)C2=O)c(OC)c1 (stereo not drawn) was read as RE007 growth inh 14% and StopGo reporter inconclusive.
COC(=O)C[C@@H]1C=C[C@H](NC(=O)c2cnccn2)[C@@H](CO)O1 was read as RE007 growth inh 0% and StopGo reporter -5%.
`O=C1CCC[C@@H]2[C@H](Cc3ccccc3)[C@@H](O)C[C@@H]3CCN1[C@@H]32` gave RE007 growth inh -8% and StopGo reporter -28%.
`COc1ccc(C(=O)Nc2cccc(NC(C)=O)c2)cc1` gave RE007 growth inh 9% and StopGo reporter 18%.
For O=C(Nc1ccnn1C1CCN(C(=O)c2cccnc2)CC1)c1cccc(F)c1 the results were RE007 growth inh 2% and StopGo reporter -2%.
Screening CN(C)c1ccc(C(=O)C=Cc2ccc([N+](=O)[O-])cc2)cc1 returned RE007 growth inh -6% and StopGo reporter -5%.
CC(=O)NC(c1cccc(F)c1)c1nc(-c2ccc(N(C)C)cc2)cs1 (stereo not drawn) was read as RE007 growth inh 11% and StopGo reporter -13%.
Screening O=c1[nH][nH]c2c1[C@@H](c1ccc(F)cc1)O[C@H](CCOCc1ccccc1)C2 returned RE007 growth inh 4% and StopGo reporter -8%.
`CCOC(=O)C1=CCN(S(=O)(=O)c2ccccc2C)C1c1cccc(F)c1` (stereo not drawn) gave RE007 growth inh -15% and StopGo reporter -28%.
Screening CCOC(=O)[C@]12CCC=C1N(Cc1ccccc1)C(=O)[C@H](CC(=O)NCc1cccs1)C2 returned RE007 growth inh 2% and StopGo reporter -6%.
Screening O=c1[nH][nH]c2c1[C@H](c1ccc(Cl)cc1)O[C@H](C1CCCC1)C2 returned RE007 growth inh -26% and StopGo reporter -23%.
For CCN1C(=O)[C@H]2[C@@H](c3ccc(C)cc3)N[C@]3(CCCN(Cc4ccc(C(F)(F)F)cc4)C3=O)[C@H]2C1=O the results were RE007 growth inh 6% and StopGo reporter -24%.
`COCCNC(=O)C1(C)CCCN(Cc2ccc(-n3ccnc3)cc2)C1` (stereo not drawn) gave RE007 growth inh -20%[18.4 µM] and StopGo reporter -18%.
Screening O=C(NCCCN1CCOCC1)c1[nH]c(C(F)(F)F)nc1-c1ccccc1 returned RE007 growth inh 6% and StopGo reporter -22%.
Screening CCc1ccccc1Oc1nc(NCc2ccccc2)nc2ccsc12 returned RE007 growth inh -1%[18.4 µM] and StopGo reporter -27%.
Screening COc1cccc2c(=O)c3c(oc12)CCCC3 returned RE007 growth inh inconclusive and StopGo reporter -12%.
For CC1(C(=O)NS(=O)(=O)c2ccc(Cl)cc2)CCN1C(=O)Cc1ccc(Cl)cc1Cl (stereo not drawn) the results were RE007 growth inh 4% and StopGo reporter -4%.
CCN(CC)C(=O)c1cccc(-c2csc(C(O)c3cccc(OC)c3)n2)c1 (stereo not drawn) was read as RE007 growth inh 3% and StopGo reporter inconclusive.
CCn1c(=O)c2[nH]c(SC)nc2n(CC)c1=O was read as RE007 growth inh 18% and StopGo reporter 1%.
For O=C(NC1CCCCC1)C(c1cc2ccccc2o1)N1CCOCC1 (stereo not drawn) the results were RE007 growth inh 17% and StopGo reporter 9%.
Screening C=CCNc1nc2cc(-c3cccc(Cl)c3)sc2c(=O)n1C returned RE007 growth inh -10% and StopGo reporter 27%.
Screening O=[N+]([O-])c1ccc(N2CCOCC2)c2c1no[n+]2[O-] returned RE007 growth inh 45µM* and StopGo reporter 10µM*.
For COC(=O)c1ccc2nc(-c3ccc(C)cc3)c(Cc3ccsc3)n2c1 the results were RE007 growth inh -27% and StopGo reporter -5%.
`CCc1nc2ccc(C(=O)N(C)Cc3ccco3)cn2c1N(C)C(=O)Cc1ccccc1` gave RE007 growth inh 14% and StopGo reporter -12%.
For CC(=O)c1sc(NC(=O)CCS(=O)(=O)c2ccc(F)cc2)nc1C the results were RE007 growth inh 8% and StopGo reporter 37%[activator].
COCCNC(=O)c1ccc(-c2cn[nH]c2)c2ccoc12 was read as RE007 growth inh -7% and StopGo reporter 11%.

Six entries already listed, ordered by length of the SMILES, ascending.
CCn1c(=O)c2[nH]c(SC)nc2n(CC)c1=O was read as RE007 growth inh 18% and StopGo reporter 1%.
For O=C(NC1CCCCC1)C(c1cc2ccccc2o1)N1CCOCC1 (stereo not drawn) the results were RE007 growth inh 17% and StopGo reporter 9%.
Screening O=[N+]([O-])c1ccc(N2CCOCC2)c2c1no[n+]2[O-] returned RE007 growth inh 45µM* and StopGo reporter 10µM*.
For CC(=O)c1sc(NC(=O)CCS(=O)(=O)c2ccc(F)cc2)nc1C the results were RE007 growth inh 8% and StopGo reporter 37%[activator].
`CCc1nc2ccc(C(=O)N(C)Cc3ccco3)cn2c1N(C)C(=O)Cc1ccccc1` gave RE007 growth inh 14% and StopGo reporter -12%.
For CC1(C(=O)NS(=O)(=O)c2ccc(Cl)cc2)CCN1C(=O)Cc1ccc(Cl)cc1Cl (stereo not drawn) the results were RE007 growth inh 4% and StopGo reporter -4%.

More entries.
For COc1ccc(F)cc1-c1cc(C(=O)NC2CCCCC2)[nH]n1 the results were RE007 growth inh -4% and StopGo reporter 28%.
Screening COc1ccc(NC(=O)C2(C)Cc3c(-c4ccc(N(C)C)cc4)ccnc3O2)cc1OC (stereo not drawn) returned RE007 growth inh -1% and StopGo reporter -24%.
Screening COc1cc(-c2cc3nc(NCCc4ccncc4)ccn3n2)cc(OC)c1OC returned RE007 growth inh -23% and StopGo reporter -27%.
`CC(C)CNC(=O)C1(C)CCCCCN1C(=O)c1csnn1` (stereo not drawn) gave RE007 growth inh -13% and StopGo reporter -12%.
`COC/C=C/C1=CC2=CC(=O)C(C)(OC(=O)c3cnc4ccccc4n3)C(=O)C2=CN1c1ccc(OC)cc1` (stereo not drawn) gave RE007 growth inh -1% and StopGo reporter -8%.
COc1cc(NC(=O)c2ccc(-c3cnn(C)c3)c3ccoc23)cc(OC)c1OC was read as RE007 growth inh -2% and StopGo reporter 4%.
For COc1ccccc1CNc1nc(NCc2ccc(NC(C)=O)cc2)c2sccc2n1 the results were RE007 growth inh -17% and StopGo reporter -25%.
O=C(NC1CC1)C1=C[C@@H](c2ccc(C(F)(F)F)cc2)C[C@@H](OCc2ccc(CO)cc2)O1 was read as RE007 growth inh -3% and StopGo reporter -17%.
Cc1ccc(Cc2c(-c3ccc(Br)cc3)nc3ccc(Br)cn23)cc1 was read as RE007 growth inh -5% and StopGo reporter 0%.
For CN(Cc1cc(Cl)cc(Cl)c1)[C@H]1C[C@H]2c3[nH]c4ccccc4c3CCN2C(=O)[C@H]1CO the results were RE007 growth inh -6% and StopGo reporter inconclusive.

Structures above with an aryl thioether with sulfur outside any ring:
COc1ccc(N2C(=O)CC(Sc3nccc(C)n3)C2=O)c(OC)c1 (stereo not drawn) was read as RE007 growth inh 14% and StopGo reporter inconclusive.
CCn1c(=O)c2[nH]c(SC)nc2n(CC)c1=O was read as RE007 growth inh 18% and StopGo reporter 1%.

(more compounds)
CC(Nc1nc(-c2ccc(F)cc2)cs1)c1nc2cc(Cl)c(N3CCCCC3)cc2n1CCOCCO (stereo not drawn) was read as RE007 growth inh -18% and StopGo reporter inconclusive.
CCc1nc2ccc(C(=O)NCc3ccc(OC)cc3)cn2c1N(C)C(=O)Cc1ccccc1 was read as RE007 growth inh -12% and StopGo reporter -8%.
Screening CCc1nc2ccc(C(=O)N(C)CCN(C)C)cn2c1N(C)CCC(C)C returned RE007 growth inh -9%[18.4 µM] and StopGo reporter -11%.
CN1C[C@H]2CON(C)[C@H]2C[C@H]1c1cccc(Br)c1 was read as RE007 growth inh 2% and StopGo reporter -7%.
Screening O=C(NCC1CCOCC1)c1cccc2c(-c3cccnc3)coc12 returned RE007 growth inh -8% and StopGo reporter -26%.
For CC1=C(C(=O)N(C)C)CC(CC(=O)NCc2cccs2)C(=O)N1Cc1ccccc1 (stereo not drawn) the results were RE007 growth inh -8% and StopGo reporter -19%.
